Assay outcomes deposited in PubChem by several laboratories.
CBX7 AlphaScr = CBX7 chromodomain binding inhibitors, primary screen, biochemical, AlphaScreen; Chromobox protein homolog 7 (Homo sapiens), O95931; AlphaScreen His6-CBX7 / biotin-H3K27me3 peptide binding; hits give low values; normalised signal (fraction of DMSO) (no concentration beside the values); actives 1.1% (n = 66,000); in the data active = normalised signal below about 0.5;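 note: 100 nL library stock added to about 20 µL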
Target sequence (O95931 whole entry, looked up): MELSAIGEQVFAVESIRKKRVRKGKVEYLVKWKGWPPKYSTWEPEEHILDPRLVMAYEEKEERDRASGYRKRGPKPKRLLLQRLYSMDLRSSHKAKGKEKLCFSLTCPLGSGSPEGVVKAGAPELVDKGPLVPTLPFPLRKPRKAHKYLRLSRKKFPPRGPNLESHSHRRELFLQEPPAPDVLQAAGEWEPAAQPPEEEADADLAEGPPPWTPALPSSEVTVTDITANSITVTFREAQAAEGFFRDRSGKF
CBX7 AlphaScr z-score = second read-out of CBX7 AlphaScr, no call of its own (marks repeat the call); z-score; measured here: z-score of CBX7 signal; some inactives read as strong as hits; reference of the scale not given here;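 same signal on another scale; lower means less binding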
Numbers without * were called inactive. Some of the compounds tested, so the mix of outcomes need not match the whole.

SMILES | CBX7 AlphaScr | CBX7 AlphaScr z-score
Cc1cc2cc(CCNC(=O)Cc3cccs3)c(=O)[nH]c2cc1C | 1.02 | 0.756
CCCCCOc1ccc(C(O)(CC(C)C)C(CN2CCOCC2)c2ccccc2)cc1 (stereo not given) | 0.726 | -2.9
CCC(C(=O)N1CC(=O)Nc2ccc(C)cc2C1c1ccc(F)cc1)c1ccccc1 (stereo not given) | 1.04 | 0.418
CCn1c(C(C)NC(=O)COC)nc2ccccc21 (stereo not given) | 0.881 | -1.37
Cc1cc(C)c(S(=O)(=O)NCCc2cc3ccc(C)cc3[nH]c2=O)c(C)c1 | 1.01 | 0.272
COCCn1c(SCc2cc(F)ccc2F)nc2cc(C(=O)OC)ccc2c1=O | 1.13 | 1.96
COc1cc2c(cc1OC)C(c1cccc(OC)c1OC(C)C)CC(=O)N2 (stereo not given) | 0.789 | -2.72
COc1ccc(NC(=O)C2CCN(S(=O)(=O)c3cccnc3)CC2)cc1Cl | 1.11 | 2.93
Cn1c(C(=O)c2ccccc2)c(C(=O)O)c2ccccc21 | 1.03 | 1
Cc1cccc(N2C(=O)CC(N3CCN(c4cccc(Cl)c4)CC3)C2=O)c1 (stereo not given) | 1.06 | 1.39
COCCN(CCOC)S(=O)(=O)c1ccc(C(=O)Nc2nc(-c3ccc(C)cc3)cs2)cc1 | 0.952 | -1.21
CC1CC(C)CN(CCCNC(=O)Cn2ncc3c2-c2ccccc2OC3)C1 (stereo not given) | 1.05 | 1.39
COc1ccc(Nc2cc(C(=O)NCCCOC(C)C)c3ccccc3n2)c(OC)c1 | 0.966 | -0.519
CCCCN(C)CCNC(=O)CN1C(=O)COc2ccc(C(C)(C)C)cc21 | 1.03 | 0.693
CCOc1ccc(-c2nnc(OCC)c3ccccc23)cc1 | 0.993 | -0.157
CNC(=O)c1ccccc1NC(=O)c1cccc(S(=O)(=O)N2CCC(C)CC2)c1 | 1.01 | 0.0556
O=C(Cn1c(=O)n(CCc2c[nH]c3ccccc23)c(=O)c2cccnc21)Nc1cccc(Cl)c1 | 0.794 | -6.72
Cc1ccc(C)c(Cc2c(C)nc3c(C(=O)NC4CCCCC4)cnn3c2C)c1 | 0.943 | -2.24
COc1ccc(OC)c(C2=NOC(C(=O)NCCc3ccc(OC)c(OC)c3)C2)c1 (stereo not given) | 1.01 | 0.394
COc1ccc(-c2noc(CCC(=O)Nc3ccccc3N3CCN(C)CC3)n2)cc1 | 1.02 | 0.566
Cc1ccc(Cn2nnc3c(=O)n(CC(=O)N4CCOCC4)cnc32)cc1 | 0.871 | -2.12
CC(=O)Nc1ccc(NC(=O)c2scc3c2OCCO3)cc1 | 1.04 | 0.0453
CC(C)n1cnc2cc(NCc3ccc(Cl)cc3)ccc21 | 0.405* | -17.1*
Cc1c(C(=O)NCc2ccc(F)cc2)oc2ccc(S(=O)(=O)N3CCCC(C)C3)cc12 (stereo not given) | 0.99 | -0.0835
CCC(C(=O)Nc1c2c(nn1-c1ccc(Cl)cc1)CSC2)c1ccccc1 (stereo not given) | 0.974 | -1.28

Individual results from the results shown.
For CBX7 AlphaScr, CCOc1ccc(-c2nnc(OCC)c3ccccc23)cc1 has 0.993
For CBX7 AlphaScr z-score, CCC(C(=O)N1CC(=O)Nc2ccc(C)cc2C1c1ccc(F)cc1)c1ccccc1 (stereo not given) has 0.418
For CBX7 AlphaScr, CCC(C(=O)Nc1c2c(nn1-c1ccc(Cl)cc1)CSC2)c1ccccc1 (stereo not given) has 0.974
For CBX7 AlphaScr z-score, Cc1c(C(=O)NCc2ccc(F)cc2)oc2ccc(S(=O)(=O)N3CCCC(C)C3)cc12 (stereo not given) has -0.0835
For CBX7 AlphaScr z-score, CC(C)n1cnc2cc(NCc3ccc(Cl)cc3)ccc21 has -17.1*
For CBX7 AlphaScr z-score, O=C(Cn1c(=O)n(CCc2c[nH]c3ccccc23)c(=O)c2cccnc21)Nc1cccc(Cl)c1 has -6.72

(next part)
SMILES | CBX7 AlphaScr | CBX7 AlphaScr z-score
Cc1nc2ccc(NC(=O)c3c(-c4ccccc4Cl)noc3C)cc2s1 | 1.01 | 0.206
COc1ccc2oc(=O)c(-c3csc(Nc4ccccc4OC)n3)cc2c1 | 1.08 | 0.795
CS(=O)(=O)N1CCCC(C(=O)NCc2ccccc2Cl)C1 (stereo not given) | 0.991 | -0.269
Cc1cc(C)cc(Nc2cc(C)nc3ncnn23)c1 | 0.873 | -2.28
Cc1ccc(CCNC(=O)Cn2nc(Cc3ccncc3)c3ccccc3c2=O)cc1 | 1.17 | 1.8
O=C(Nc1c2c(nn1-c1ccc(F)cc1)CS(=O)(=O)C2)c1ccc2c(c1)OCO2 | 0.996 | -0.0422
COc1ccc(-c2cc(C(F)(F)F)nc(N3CCN(c4ccc(F)cc4)CC3)n2)cc1OC | 1.01 | 0.454
CS(=O)(=O)OCC1COC(Cn2cncn2)(c2ccc(Cl)cc2Cl)O1 (stereo not given) | 1.05 | 0.68
Cc1ccc(S(=O)(=O)CC(=O)Nc2ccc(S(=O)(=O)Nc3nccc(C)n3)cc2)cc1 | 1.01 | 0.49
COc1cccc(-c2cc(C(F)(F)F)nc(-n3cc(Cl)cn3)n2)c1 | 1.15 | 4.32
Cc1ccc(-n2ncc3c(=O)n(-c4ccc(N5CCC(C)CC5)cc4)c(C)nc32)cc1 | 1 | 0.0736
Cc1oc(-c2cccc(Cl)c2)nc1CN1CCCC(C(=O)NCCC2=CCCCC2)C1 (stereo not given) | 0.978 | -0.617
CC(C)C1Nc2ccc(C(=O)N3CCC(Cc4ccccc4)CC3)cc2NC1=O (stereo not given) | 0.785 | -0.242
Cc1ccc(Cl)cc1N(C)C(=O)CCc1nc(-c2ccccc2F)no1 | 1.26 | 3.95
Cc1ccc2oc(-c3ccc(NC(=O)COc4cc(C)c(Cl)c(C)c4)cc3)nc2c1 | 0.935 | -1.12
Cc1ccc(NC(=O)CCNC(=O)Cn2ccc3ccccc3c2=O)cc1F | 1.02 | 0.423
NC(=O)c1c(NC(=O)c2ccc(Oc3ccccc3)cc2)sc2c1CCCCC2 | 1.27 | 2.06
Cc1cc(C)cc(N(CC(=O)Nc2ccccc2F)S(=O)(=O)c2c(C)noc2C)c1 | 0.848 | -1.27
COC(=O)C1=C(C)NC(=O)CC1c1ccc(Cl)c(Cl)c1 (stereo not given) | 0.957 | -0.769
CCOc1ccccc1NC(=O)Cc1c(C(=O)O)[nH]c2ccc(Cl)cc12 | 1.05 | 1.51
CCOC(=O)c1c(CNC2CCCCC2)n(-c2ccccc2)c2cc(Br)c(OC)cc12 | 1.03 | 0.194
CCCCc1ccc(NC(=O)CSc2nccn2-c2cccc(C)c2C)cc1 | 0.742 | -0.258
O=C(NCCCN1CCC(Cc2ccccc2)CC1)C1CCC(=O)N1Cc1ccccc1Cl (stereo not given) | 1.1 | 2.85
COCCCNc1nc(-c2ccccc2F)nc2ccccc12 | 1.08 | 1.99
Nc1nonc1C(=O)NCc1ccc2c(c1)OCO2 | 0.997 | -0.0738

The results go on.
SMILES | CBX7 AlphaScr | CBX7 AlphaScr z-score
O=C(NCc1ccncc1)C1CCN(S(=O)(=O)c2ccccc2)CC1 | 1.03 | 0.634
O=C(Nc1c2c(nn1-c1ccc(Oc3ccccc3)cc1)CSC2)c1cccc(C(F)(F)F)c1 | 1.22 | 0.223
CC(Nc1nc(-c2cccs2)cc(C(F)(F)F)n1)c1ccccc1 (stereo not given) | 1.76 | 6.11
Cc1nc(SCCN2C(=O)c3ccccc3C2=O)c2c3c(sc2n1)CCC3 | 1.03 | 0.0381
CCOC(=O)N1CCC(NC(=O)CCc2c(C)nc3cc(-c4ccccc4)nn3c2C)CC1 | 1 | -0.0125
Cc1ccc(CNC(=O)CN2C(=O)CSc3ccc(S(=O)(=O)N4CCCCCC4)cc32)cc1 | 0.961 | -1.17
Cc1cc2ccccc2c(=O)n1CC(=O)N1CCC(Cc2ccccc2)CC1 | 0.973 | -0.691
COc1ccc(C2=NOC(C(=O)NCCN3CCOCC3)C2)cc1 (stereo not given) | 0.97 | -0.407
COCCNC(=O)c1cc2c(-c3ccc(OC)c(OC)c3)nn(C)c2s1 | 0.976 | -0.678
Cc1ccc(S(=O)(=O)Nc2ccccc2-c2nc3ccccc3s2)cc1 | 1.27 | 6.73
CCOc1ccc(CCNC(=O)c2cc(Nc3ccc(OC)cc3)nc3ccccc23)cc1OCC | 1.47 | 2.05
CCCCNC(=O)c1c[nH]c2ccc(S(=O)(=O)N(CC)c3ccc(F)cc3)cc2c1=O | 1.07 | 0.61
OC(COc1cccc(Cl)c1)Cn1c(C(F)(F)F)nc2ccccc21 (stereo not given) | 1.04 | 1.6
CC1CCN(C(=O)CSc2nnc(-c3ccc(Cl)s3)o2)CC1 | 1.3 | 4.56
COc1cc(C2Nc3ccc(C(=O)c4ccccc4)cc3NC3=C2C(=O)CC(C)(C)C3)ccc1O (stereo not given) | 0.996 | -0.13
CCc1ccc(N(CC)C(=O)c2cn(CC)c(=O)c3cc(OC)c(OC)cc23)cc1 | 1.01 | 0.104
CC(=O)N1c2ccc(S(=O)(=O)N3CCN(c4cccc(C)c4)C(C)C3)cc2CC1C (stereo not given) | 0.973 | -0.813
Cc1csc2ncc(C(=O)Nc3ccccc3)c(=O)n12 | 0.891 | -1.29
O=C(NCc1cccnc1)c1ccc2c(c1)N(Cc1ccccc1Cl)C(=O)c1ccccc1S2 | 0.786 | -5.58
Cc1ccccc1C(=O)Nc1c(C(=O)Nc2ccccc2F)oc2ccccc12 | 1.08 | 2.21
CS(=O)(=O)c1ccc2nc(NC(=O)Cc3ccc(Br)cc3)sc2c1 | 1.01 | 0.291
Cc1ccc2c(c1)N(C(C)C(=O)NCCc1ccccc1)C(=O)CO2 (stereo not given) | 1.01 | 0.204
Cc1nn(Cc2ccccc2Cl)c(C)c1NC(=O)c1cc(-c2cccc(Cl)c2)on1 | 1.09 | 2.46
COc1ccc(-n2c3c(cc(C(=O)Nc4ccccc4F)c2=O)C(=O)CCC3)cc1 | 1.1 | 1.13
O=C1c2ccccc2-c2onc3c(Cl)ccc1c23 | 0.786 | -4.13

A run of entries from the list above, for reference:
SMILES | CBX7 AlphaScr | CBX7 AlphaScr z-score
Cc1cc2cc(CCNC(=O)Cc3cccs3)c(=O)[nH]c2cc1C | 1.02 | 0.756
CCCCCOc1ccc(C(O)(CC(C)C)C(CN2CCOCC2)c2ccccc2)cc1 (stereo not given) | 0.726 | -2.9

Additional structures
SMILES | CBX7 AlphaScr | CBX7 AlphaScr z-score
COc1ccc(C(=O)NCCc2nc3ccccc3n2Cc2cc(C)ccc2C)cc1OC | 0.991 | -0.039
COc1ccc(C2C(=O)N(C3CCCCCC3)CC(=O)N2C2CCCCCCC2)cc1 (stereo not given) | 0.963 | -0.148
CNc1c2ccccc2nc2ccccc12 | 0.963 | -0.446
COc1cccc(CN2CCN(Cc3cc(OC)c(OC)c(OC)c3)CC2)c1 | 0.989 | -0.279
COc1ccc(C(=O)Nc2ccc(S(=O)(=O)Nc3cc(OC)nc(OC)n3)cc2)cc1 | 1.3 | 2.51
CC1CCCCC1NC(=O)c1ccc2c(c1)ncn2C1CCCC1 (stereo not given) | 0.953 | -1.41
Cn1c(C(=O)N2CCC(C(=O)NCCc3c[nH]c4ccccc34)CC2)cc2sccc21 | 0.949 | -0.924
O=C(Cn1nnc(-c2ccccc2F)n1)Nc1cccc(F)c1 | 1.05 | 0.998
Cc1cc(NS(=O)(=O)c2cn(C)cn2)ccc1Br | 1.01 | 0.0795
Cc1cc(=O)n2nc(N3CCC(C(=O)NCCCN4CCCCCC4)CC3)sc2n1 | 1.31 | 2.89
CCN1C(=O)CSc2ccc(C(=O)NCCC3=CCCCC3)cc21 | 1.07 | 0.657
Cc1ccc(C(C)C)c(OCc2nc3ccccc3n2C(C)c2ccccc2)c1 (stereo not given) | 0.877 | -0.879
CCCCCCNc1nc(CC)c2c(c1C#N)CCCC2 | 1.11 | 3.8
O=C(NCc1ccc2c(c1)OCO2)C1CCN(c2nc3ccccc3n2Cc2ccc(F)cc2)CC1 | 0.828 | -1.98
O=C(NC1CCCc2ccccc21)c1cnn(-c2ccccc2)c1-n1cccc1 (stereo not given) | 0.999 | -0.0253
Cc1ccc(OCCn2c(C3CC(=O)N(c4cc(C)ccc4C)C3)nc3ccccc32)cc1 (stereo not given) | 0.494* | -3.16*
COc1ccc(OC)c(-n2cnc3cc(C(=O)NC4CCCCCC4)ccc32)c1 | 0.77 | -2.89
CCc1ccc(NC(=O)c2cc(-c3ccccc3OC)on2)cc1 | 1.24 | 2.76
CCOc1ccc(-c2cc(C(=O)NCCCN3CCOCC3)c3ccccc3n2)cc1 | 1.23 | 4.36
C=CCn1c(=O)c(C(=O)Nc2ncccc2C)c(O)c2ccccc21 | 1.14 | 2.07
FC(F)(F)c1cc(-c2cccs2)nc(-n2cc(Cl)cn2)n1 | 1.05 | 1.35
COc1ccc(N2CCN(CC(O)COc3ccc(Cl)c(C)c3)CC2)cc1 (stereo not given) | 0.834 | -5.39
COc1ccc(CCNC2CC(=O)N(c3ccc(Br)cc3)C2=O)cc1OC (stereo not given) | 1.03 | 0.212
c1ccc(-c2cc(-c3ccccc3)n(-c3cc(N4CCOCC4)ncn3)n2)cc1 | 0.775 | -2.42
CC1CCN(CCCNC(=O)CCn2nc(-c3ccc(Cl)cc3)ccc2=O)CC1 | 1.09 | 1.66
O=C(NC1CCCCCC1)C1CCN(C(=O)c2cc3sccc3n2Cc2ccc(F)cc2)CC1 | 0.915 | -4.1
CCOc1ccc(NC(=O)c2cc3c(-c4ccc(Cl)cc4)nn(C)c3s2)cc1 | 1.14 | 0.577
Cc1ccnc(NS(=O)(=O)c2ccc(NC(=O)c3ccccc3Cl)cc2)n1 | 1.15 | 2.52
CC(C)CCNC(=O)c1cc(-c2cccnc2)nc2ccccc12 | 1.06 | 1.43

Profiles, quoted from the list:
COc1ccc(OC)c(C2=NOC(C(=O)NCCc3ccc(OC)c(OC)c3)C2)c1 (stereo not given) is entered as CBX7 AlphaScr = 1.01; CBX7 AlphaScr z-score = 0.394
COc1ccc(OC)c(-n2cnc3cc(C(=O)NC4CCCCCC4)ccc32)c1 is entered as CBX7 AlphaScr = 0.77; CBX7 AlphaScr z-score = -2.89
